Assay outcomes as filed in PubChem.
Vaccinia Venus: inhibitors of vaccinia virus (Venus reporter) | Vaccinia virus Venus reporter expression, fluorescence | Potency, µM (series often up to 36.5 µM), without a hit: at the top dose activity change, negative = inhibition, most hits filed as inhibitors | actives 0.46% (n = 330,000); active means well fitted inhibition curve with a large enough effect; inconclusive means small, poorly fitted or top-dose-only effect; inactive means no such curve, though single readings can be large or run the other way; tested in A549 cells; further: nearly all actives have a fitted effect of over 30% in size; inactives centre near -10
VACV mCherry inh: inhibitors of vaccinia virus infection (mCherry reporter signal). Vaccinia virus mCherry reporter infection, fluorescence; about a quarter of the inactives have no number. Potency, µM (top dose mostly 36.5 µM), without a hit: top-dose activity change, negative = inhibition, usual class: inhibitors. actives 0.63% (n = 310,000); active = well fitted inhibition curve with a large enough effect; inconclusive = small, poorly fitted or top-dose-only effect; inactive = no such curve, though single readings can be large or run the other way; tested in A549 cells; further: nearly all actives have a fitted effect of over 35% in size; inactives centre near -10
The depositor's hits bear a star; i = inactive; u = inconclusive; x = not tested or not shown; [ ] = remark or other dose. On the % scale 0 is the no-effect control and ±100 the full control effect; potency means the concentration at half of the fitted maximal effect. Rows were taken by chance (roughly 0.86% active in at least one column).

| compound | VACV mCherry inh | Vaccinia Venus |
| --- | --- | --- |
| COc1ccc(-c2cnc(C)o2)cc1S(=O)(=O)Nc1ccc(C)c(F)c1 | -13% | -16% |
| COc1cc(OC)cc(-c2oc(=O)c3cc(OC)c(OC)cc3c2C#CCCO)c1 | i | -14% |
| COc1ccc(OC)c(C(=O)CSc2nccc(-c3ccc(Br)cc3)n2)c1 | -2% | -14% |
| O=C(O/N=C/c1ccc(Br)cc1)c1ccc(F)cc1 | -12% | -1% |
| COc1cc(C(=O)NCc2nnc(SCC(=O)NC3CCCCC3)o2)cc(OC)c1OC | -16% | -7% |
| COCCN(C(=S)Nc1cccc(C)c1)C(C)c1cccnc1 (stereo not given) | i | -2% |
| CCCCNC(=O)Nc1nnc(-c2ccc(OCC)cc2)o1 | x | -19% |
| CCN(c1ccccc1)S(=O)(=O)c1ccc(Cl)c(NC(=O)COC(=O)c2ccc(Cl)c(N)c2)c1 | i | -4% |
| OC(COC(c1ccc(Cl)cc1)c1ccc(Cl)cc1)CN1CCc2ccccc2C1 (stereo not given) | -23% | -24% |
| COCCn1c(CNC(=O)c2cc(OC)c(OC)c(OC)c2)nc2cccnc21 | -10% | 0% |
| Cc1ccc(CNC(=O)CN2C(C)CCCC2C)cc1 (stereo not given) | -3% | -13% |
| Cc1ccc(C)c(OCc2cc(C(=O)N3CCN(C4CCCCC4)CC3)no2)c1 | -22% | -6% |
| CC(C)NC(=O)c1cc2c(Cl)nc3ccccc3c2s1 | -7% | -7% |
| OCCCN1CCN(CCCOc2ccccc2-c2ccccc2)CC1 | -14% | -7% |
| CCOC(=O)c1cc(-c2ccccc2)sc1NC(=O)c1cc(OC)c(OC)c(OC)c1 | -9% | -4% |
| CC(=O)COc1ccc2c(-c3ccccc3)cc(=O)oc2c1C | -16% | -15% |
| Cc1cc(C)n(-c2cc(N3CCN(C(=O)c4cccc(F)c4)CC3)ccc2[N+](=O)[O-])n1 | -24% | -27% |
| Cc1n[nH]c(C)c1S(=O)(=O)N(CC(=O)NCc1ccccc1Cl)c1ccc(C(C)C)cc1 | i | -22% |
| COc1ccc(CNC(=O)c2cc3c(=O)n(Cc4cccs4)ccc3nc2C)cc1 | -12% | -10% |
| COCCCNC(=O)Cn1c(=O)n(-c2cccc(C)c2)c(=O)c2c1c1cc(C)ccc1n2C | 2% | -3% |
| CCc1ccc(/C=C2\SC(=S)N(CCC(=O)N3CCN(C)CC3)C2=O)cc1 | u | 10µM* |
| O=C(Nc1c(-c2ccccc2)[nH][nH]c1=O)c1ccc2c(c1)OCO2 | i | -4% |
| COCCNC(=S)N=Nc1c(O)[nH]c2ccc([N+](=O)[O-])cc12 | -25% | -8% |
| CCOC(=O)c1c(C)[nH]c(C(=O)OCC(=O)c2ccc3c(c2)NC(=O)CO3)c1C | -13% | -3% |
| CC(=O)c1c(C)[nH]c2ccc(OCC(O)CNCCc3ccccc3)cc12 (stereo not given) | -6% | -17% |

Whole records, quoted from the list. Screens in order: VACV mCherry inh, Vaccinia Venus
Cc1n[nH]c(C)c1S(=O)(=O)N(CC(=O)NCc1ccccc1Cl)c1ccc(C(C)C)cc1 reads i, -22%
Cc1ccc(CNC(=O)CN2C(C)CCCC2C)cc1 (stereo not given) reads -3%, -13%

Continuation.
| compound | VACV mCherry inh | Vaccinia Venus |
| --- | --- | --- |
| CCCNC(=O)C1(C)CCCN(C(=O)c2ccccc2F)C1 (stereo not given) | 38%[activator] | -3% |
| COc1cc2c(=O)c(S(=O)(=O)c3ccccc3)cn(CC(=O)Nc3ccccc3C)c2cc1OC | 10% | -2% |
| COC(=O)C1=C(N)Oc2cc(C)n(CC3CCCO3)c(=O)c2C1c1ccc(Cl)c(Cl)c1 (stereo not given) | -24% | -28% |
| CC1=NNC(=O)C1Cc1c(Cl)cccc1Cl (stereo not given) | -9% | -11% |
| CCOC(=O)C1=NOC(CNC(=O)C2=NOC(CNC(=O)c3c(-c4ccccc4Cl)noc3C)C2)C1 (stereo not given) | x | -22% |
| COCCN(C(=O)CSCC(=O)Nc1cccc(C)c1)c1c(N)n(Cc2ccccc2)c(=O)[nH]c1=O | -9% | 0% |
| Cc1ccc(NC(=O)C2=C(O)CCn3c2nc2ccccc23)cc1 | u | -22% |
| COc1ccc(CN2C(=O)c3ccccc3C2=O)cc1C(=O)N(C)CC(=O)Nc1ccc(C)cc1 | i | -20% |
| COc1ccc(N)cc1C#N | 1% | -7% |
| CC1(C2CC2)NC(=O)N(CC(=O)N2CCN(S(=O)(=O)c3ccc(F)c(F)c3)CC2)C1=O (stereo not given) | -17% | -4% |
| COc1cccc(C(=O)NCCCNC(=O)c2cccnc2)c1 | i | -2% |
| CCc1ccc(CNC(=O)C2CCCN(c3nnc(C)c4c(C)n(-c5ccccc5)nc34)C2)cc1 (stereo not given) | -26% | -18% |
| COc1ccc(Cn2c(SCc3ccc(C(=O)NCc4ccc(C)cc4)cc3)nc3cccnc32)cc1 | -22% | -21% |
| CC1CCc2c(sc3nnn(Cc4ccccc4)c(=O)c23)C1 (stereo not given) | -11% | 8% |
| O/N=C/Cc1[nH]c2ccccc2c1-c1ccccc1 | u | -11% |
| CC(=O)c1ccc2c(c1)C1C=CCC1C(c1cc3c(cc1Br)OCO3)N2 (stereo not given) | u | u |
| COc1ccccc1N1CCN(CC(=O)c2c(C)[nH]c3cc(C)ccc23)CC1 | -14% | -1% |
| CC(C)Cc1cc(C(=O)NCCCN2CCOCC2)no1 | -5% | -6% |
| CNc1ccc(N=Nc2cccc3ncccc23)cc1 | -6% | -7% |
| CC[N+](C)(C(=O)O)/C(=C\c1ccccc1)c1ccnc2ccccc12 (stereo not given) | -19% | 29% |
| COc1ccccc1CNC(=O)CSc1n[nH]c(N)n1 | u | -6% |
| Cc1cccc(N2CC(c3nc4ccccc4[nH]3)CC2=O)c1 (stereo not given) | i | -18% |
| Cc1ccc(C2(C)NC(=O)N(CC(=O)NNC(=O)c3ccoc3C)C2=O)cc1 (stereo not given) | -4% | 4% |
| O=c1c2c([nH]c3ccc(Br)cc13)CCCC2 | x | -9% |
| Cc1ccc(NC(=O)c2ccc(-n3c(C)nnc3C)cc2)cc1F | -7% | -14% |
| C#Cc1ccc([C@@H]2C=C(C(=O)NCc3ccccc3)O[C@H](OCC)[C@H]2CCCO)cc1 | i | u |
| CCOc1ccccc1N1CC(C(=O)N(CC)CC(=O)Nc2ccc3c(c2)OCCO3)CC1=O (stereo not given) | i | -15% |
| COc1ccc(C(=O)NN)cc1COc1ccc(Br)cc1 | -16% | -7% |
| O=C(Nc1ccccc1)c1nc[nH]c1C(=O)NCc1ccccc1 | -24% | u |
| COc1ccc(/C=N/OCC(=O)NC(c2ccccc2)c2ccccc2)c(OC)c1 | -12% | -28% |
| Cc1ccc(C)c(NC(=S)NC(C)C(c2ccccc2)N2CCN(C)CC2)c1 (stereo not given) | -3% | -8% |
| CCC(C(=O)OCC(=O)Nc1cc(Cl)ccc1Cl)c1ccccc1 (stereo not given) | i | -9% |
| O=C(c1ccccc1F)N(Cc1ccc(F)cc1)C1CCS(=O)(=O)C1 (stereo not given) | x | -23% |
| CCOC(=O)N1CCN(C(c2ccnc3ccccc23)c2nnnn2-c2c(C)cccc2C)CC1 (stereo not given) | -13% | -5% |
| O=C(c1cc2c(=O)n3ccccc3nc2s1)N1CCN(c2cccc(Cl)c2)CC1 | -11% | -10% |
| O=C(NCc1ccc2c(c1)OCO2)C1CCC(CNc2c(N3CCCCC3)c(=O)c2=O)CC1 (stereo not given) | -3% | -7% |
| CCCCN(CC)CCNC(=O)C1CCCN(c2ncnc3onc(C)c23)C1 (stereo not given) | -5% | -14% |
| CC(=O)Nc1ccc(CN2C(=O)C(Cc3ccccc3)ON=C2c2cccc(F)c2)cc1 (stereo not given) | i | 5% |
| O=C(CSc1nnnn1-c1ccccc1Cl)Nc1ccc2c(c1)OCCO2 | -4% | -3% |
| C[C@@H](CO)NC(=O)[C@H]1O[C@@H](n2cnc3c(N)ncnc32)[C@H](O)[C@@H]1O | 4% | -5% |
| CC(C)CNC(=S)NC1CC2CCCC(C1)N2Cc1ccco1 (stereo not given) | -17% | -25% |
| COc1ccccc1N1CCN(C(CNC(=O)C(=O)NCCc2ccccc2)c2cccnc2)CC1 (stereo not given) | -30% | -30% |
| CCNC(=O)Cn1cc(C(F)(F)F)cc(Cl)c1=O | i | -12% |
| CCOC(=O)C1CCN(C(=O)CN(c2ccc(OC)c(OC)c2)S(=O)(=O)c2ccccc2)CC1 | i | -24% |
| Cc1ccc(CNCc2ccccc2Cl)s1 | -5% | 5% |
| CCOC(=O)C1CCN(S(=O)(=O)c2ccc(OC)c(C(=O)N3CCCCC3)c2)CC1 | 0% | 0% |
| Cc1c(NC(=O)CSCc2ccc(Cl)cc2Cl)cccc1C(=O)O | -5% | -18% |
| CC(=O)c1ccc(N2C(=NC(=O)C3CCCCC3)SC3CS(=O)(=O)CC32)cc1 (stereo not given) | -17% | -5% |
| O=S1(=O)CCN2N=C(C3CC3)SC2=N1 | -13% | -14% |
| COCCNC(=O)Nc1ccc2c(c1)N(C)C(=O)c1ccccc1S2 | -2% | -5% |

The listing continues:
| compound | VACV mCherry inh | Vaccinia Venus |
| --- | --- | --- |
| O=C1C(C=NCc2cccnc2)=C(O)c2ccccc21 | -4% | 0% |
| Cc1ccccc1/C=N/N=C1/NC(=O)CCS1 | -2% | -4% |
| CCOC(=O)C1CCN(C(=O)C(C)Sc2ccc(Cl)cc2)CC1 (stereo not given) | -10% | -11% |
| CC(Oc1ccccc1)C(=O)Nc1c2c(nn1-c1ccccc1)CS(=O)C2 (stereo not given) | i | -10% |
| Cc1cccc(N=C2Sc3nc4c(C)c(C)ccc4cc3CN2CCN2CCOCC2)c1 | -11% | u |
| Cc1ccc(-c2c(C)n3c4c(=O)n(C)c(=O)n(C)c4nc3n2-c2cccc(O)c2)cc1 | -28% | -24% |
| Cc1cc(=O)oc2c(C)c3occc3cc12 | 14% | 5% |
| CN(C)c1ccc(NC(=O)c2cc3c(=O)n4ccccc4nc3n2C)cc1 | -15% | -7% |
| Cc1ccc(NC(=S)N(CCN2CCCCC2)Cc2ccco2)cc1 | -8% | -1% |
| COc1ccc(OCC(=O)NNC(=O)C2CCC2)cc1 | -17% | -8% |
| CC(=O)N(CCCN1CCOCC1)Cc1ccncc1 | -1% | 4% |
| COc1ccc(OC)c(N=C(C)C2=C(O)COC2=O)c1 | x | -23% |
| CC1(C)C(=O)Nc2ccccc2N1C(=O)COC(=O)/C=C/c1ccc(OC(F)F)cc1 | -12% | -6% |
| Cc1cc2c(cc1S(=O)(=O)C(C)CC(=O)NC1CCC(C)CC1)OCC(=O)N2 (stereo not given) | -4% | -5% |
| Cc1ccc(S(=O)(=O)N2CCCCC2)cc1NCC(=O)Nc1ccc(Br)cc1F | u | u |
| C/C(=N\NC(=O)CSc1nc(C)cc(C)n1)c1ccc([N+](=O)[O-])cc1 | u | -20% |
| O=C(Cc1ccsc1)N1CCc2c([nH]c3ccccc23)C1c1ccccn1 (stereo not given) | -25% | -6% |
| COc1ccccc1NC1=Nc2cccc3cccc1c23 | -2%[7.34 µM] | -5%[7.34 µM] |
| COc1ccccc1Cc1c(-c2ccc(Cl)cc2)nc2c3ccccc3ccn12 | -7% | -5% |
| CCOCc1nnc(NC(=O)c2ccc3c(c2)OCO3)s1 | -12% | -7% |
| O=C(Nc1c2c(nn1-c1ccc(F)cc1)CS(=O)C2)c1ccc2c(c1)OCO2 (stereo not given) | -7% | -8% |
| COc1ccc(C2=NN(c3nc(-c4ccc(CNC(C)=O)cc4)cs3)C(c3ccco3)C2)cc1 (stereo not given) | -8% | 0% |
| Cc1cccc(-c2oc3ccc(-c4ccc5c(c4)OCO5)cc3c2-c2ccc(OC3CCCCO3)cc2)c1 (stereo not given) | -19% | -13% |
| COc1ccc(N2C(S)=C(C#N)C(=O)NC2c2ccc(OC)c(OC)c2)cc1 (stereo not given) | -14% | -3% |
| CCc1cccc2c(C(=O)COC(=O)/C=C/c3ccc(O)c(OC)c3)c[nH]c12 | -25% | -26% |

An excerpt from above in order of count of non-hydrogen atoms, smallest number first.
| compound | VACV mCherry inh | Vaccinia Venus |
| --- | --- | --- |
| COc1ccccc1NC1=Nc2cccc3cccc1c23 | -2%[7.34 µM] | -5%[7.34 µM] |
| Cc1cc2c(cc1S(=O)(=O)C(C)CC(=O)NC1CCC(C)CC1)OCC(=O)N2 (stereo not given) | -4% | -5% |
| CC1(C)C(=O)Nc2ccccc2N1C(=O)COC(=O)/C=C/c1ccc(OC(F)F)cc1 | -12% | -6% |

More compounds
| compound | VACV mCherry inh | Vaccinia Venus |
| --- | --- | --- |
| COc1ccc(C2SCCN2S(=O)(=O)c2ccc(NC(C)=O)cc2)cc1 (stereo not given) | -3% | -19% |
| O=C(N/N=C\c1cc(Br)cs1)C1COc2ccccc2O1 (stereo not given) | u | u |
| NC1CCc2ccc([N+](=O)[O-])cc21 (stereo not given) | 6% | -14% |
| O=C(Nc1c(C(=O)O)oc2ccccc12)c1ccc(C(F)(F)F)cc1 | -1% | -3% |
| O=C(c1ccc2c(c1)OCO2)N1CCOCC1 | i | -16% |
| CCOc1ccc(Cn2c(CNS(=O)(=O)c3cccc(Cl)c3)nc3cccnc32)cc1 | -6% | -13% |
| CCSc1nc2sc3c(c2c(=O)n1-c1ccc(C)cc1)CCCC3 | -12% | -8% |
| Nc1nc(-c2ccccc2)c(N=Nc2ccc(Cl)cc2)s1 | -15% | -19% |
| CC(C)CN(C(=O)CCC(=O)OCc1ccc(Cl)cc1Cl)c1c(N)n(CC(C)C)c(=O)[nH]c1=O | -26% | -15% |
| COc1ccc(CCNC(=O)c2ccc3c(c2)CCN3S(=O)(=O)c2ccccc2)cc1 | -17% | -10% |
| CCOC(=O)[C@H]1O[C@@H]1C(=O)N[C@@H](CC(C)C)C(=O)NCCC(C)C | -8% | -10% |
